Bioassay records from PubChem.
RN4220 kill – kills Staphylococcus aureus RN4220; S. aureus RN4220 growth, OD600, 16 h; inhibition, % (concentration not given with the values); actives 0.33% (n = 330,000); AID 1259311;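 active means z-score of -3 or lower and OD600 up to 0.18 on both plates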;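 further: plate controls were untreated cells for no effect and reference antibiotic for full effect; stock transfer was 100 nL into about 80 µL; one replicate is shown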
BJeLR lethal – BJeLR cell viability loss; BJeLR (HRASV12) viability, CellTiter-Glo ATP luminescence, 48 h; reference of the scale not given here; inhibition, % (no concentration beside the values); actives 0.17% (n = 300,000); AID 1554;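 active means replicate mean above 50%; inconclusive means above 50% but judged a plate artefact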;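 further: 50 nL library stock added to about 25 µL; numbers are from one replicate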
PrP UTR inh – suppresses PrP 5' UTR mRNA reporter expression. actives 0.35% (n = 340,000). inhibition, % (concentration not given with the values). cell-based PrP 5' UTR mRNA reporter, plate reader;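 active means every replicate at 50% or more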;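 further: 0 = median of the neutral control wells; tested in H4 reporter cells; numbers are from one replicate; inactives centre near -14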
Mtb hypoxia rep – inhibitors of hypoxia-regulated fluorescent reporter in Mycobacterium tuberculosis | M. tuberculosis hypoxia-regulated fluorescent reporter, fluorescence | fluorescence inhibition, % (no concentration beside the values) | actives 0.1% (n = 300,000) | AID 1159583;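 active means 35 to 45% if threefold the growth effect, above 45% if 1.5-fold the growth effect; inactive means the rest, general growth blockers included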;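 further: wells of about 50 µL received 100 nL stock; 0% = vehicle wells and 100% = reference inhibitor wells; whole bacteria with a GFP reporter of the hypoxia response; strong numbers were not always called active; many hits fall short of the cut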
Bead autofluor – flagged as autofluorescent in microsphere protease counterscreen. AID 624483. compound autofluorescence counterscreen, microsphere flow cytometry; stronger effect = higher value. actives 3.1% (n = 360,000). fluorescence intensity (concentration not given with the values);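 active means at least 3 SD above the mean of all compounds, about 16000 in these data; inconclusive means too few beads counted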;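 further: 100 nL of 1 mM stock went into each well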
Sa ugtP lethal – growth inhibition of S. aureus ugtP deletion strain; growth inhibition, % (concentration not given with the values); S. aureus RN4220 ugtP deletion, OD600 growth, 16 h; some inactives read as strong as hits; actives 0.54% (n = 330,000); AID 1259309;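 active means z-score under -3 and OD600 up to 0.15 on both plates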;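 further: plate controls were untreated wells for no effect and antibiotic for full effect; wells of about 80 µL received 100 nL stock; the first replicate is given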
Mtb hypoxia rep growth – recorded beside Mtb hypoxia rep, whose call it bears; growth inhibition, %; measured here: M. tuberculosis growth (absorbance);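 0% = vehicle and 100% = reference antibiotic; read after six days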
An asterisk follows results filed as active; ? = inconclusive; . = no result given.

SMILES | RN4220 kill | BJeLR lethal | PrP UTR inh | Mtb hypoxia rep | Mtb hypoxia rep growth | Bead autofluor | Sa ugtP lethal
Cc1ccc(S(=O)(=O)n2nc(-c3cccnc3)nc2N)cc1 | 7.9 | -1 | -28 | 9 | 20 | 10034 | -11
CN1CCN(C(N)=NC(=O)c2ccccc2)CC1 | 7.4 | -4 | 6 | 9 | 5 | 2472 | 4
Cn1nnnc1SCCNC/C=C/c1ccccc1 | 0.5 | -7 | -22 | 6 | 3 | 10360 | 5
O=S(=O)(Nc1cccnc1)c1ccc2c(c1)OCCO2 | 7.8 | -4 | -25 | 14 | 8 | 3519 | 3
COc1ccc(OCC(O)CNC(=O)Nc2cc(C)cc(C)c2)cc1 (configuration not stated) | 2.9 | -5 | -18 | 3 | 10 | 4102 | 8
CCOC(=O)c1[nH]c(=O)[nH]c1CSc1ccccn1 | 5.5 | . | -43 | 2 | 5 | 9435 | 5
Cc1ccc(CSc2sc(C(=O)c3ccccc3)c(N)c2C#N)cc1 | 0.9 | -1 | -12 | . | . | 4422 | -4
CCc1cccc(NC(=O)Cn2ncn3c(cc4ccccc43)c2=O)c1 | 6.1 | -1 | -6 | 12 | 0 | 5856 | 0
NNC(=O)C1COc2cc3ccccc3cc2O1 (configuration not stated) | 3.7 | -6 | -4 | -6 | 5 | 3973 | -1
CCN1CCN(S(=O)(=O)c2ccc(Cl)c(C(=O)Nc3nnc(CC(C)C)s3)c2)CC1 | 5.8 | 7 | -11 | . | . | 2804 | 11
Cc1c(C)n2c3c(cccc13)CC2 | -4.9 | 2 | -9 | 0 | -6 | 4427 | -2
COc1ccc(OCCn2cc(/C=C(\C#N)C(=O)NCc3ccco3)c3ccccc32)cc1 | 3.5 | 2 | -13 | 4 | -2 | 1882 | 11
CC(C)CC(NC(N)=O)C(=O)Nc1ccc(Oc2ccccc2)cc1 (configuration not stated) | -7.7 | 3 | -15 | 4 | 3 | 4559 | -1
Cc1cc(C2=NNC(=NC3CCCCC3)SC2)c(C)n1-c1c(C)n(C)n(-c2ccccc2)c1=O | 8.4 | -13 | -29 | 1 | 1 | 2482 | 0
COC(=O)/C(=C(O)\C=C\c1ccccc1[N+](=O)[O-])c1nc2ccccc2[nH]1 | 18 | 3 | -15 | 3 | 4 | 5475 | -6
COc1ccc(C=NNC(=O)Cc2csc(Nc3cccc(C(F)(F)F)c3)n2)cc1C | -6.9 | . | . | 6 | 8 | . | -20
Cc1ccc(NC(=O)CSc2nnc3ccccn23)cc1S(=O)(=O)N1CCOCC1 | 5.2 | -3 | -11 | 14 | 13 | 3774 | 4
C=CCNC(=O)c1onc(CSc2cccc3ccccc23)c1C(=O)O | 20 | 12 | -21 | 16 | 6 | 3541 | 16
Cn1c(=O)[nH]c(=O)c2c1nc(CN1CCOCC1)n2CCc1ccccc1 | 0.6 | 1 | -8 | 1 | 1 | 5291 | -1
COC(=O)c1ccccc1NC(=O)C1CCN(S(=O)(=O)c2cc(OC)ccc2OC)CC1 | -2.5 | 1 | -13 | 10 | 6 | 16420* | 2
O=C(NCCO)NC(=S)c1ccccc1 | 2.9 | -7 | -8 | -5 | -2 | 10079 | 0
CN(C)c1ccc(/C=N\S(=O)(=O)c2ccccc2)cc1 | . | 22 | 12 | . | . | 2227 | .
COC(=O)CN1C(=S)N(c2ccc(OC)cc2)C(=O)/C1=C/c1ccc(OC)cc1 | 1.8 | 7 | 17 | -3 | 1 | 1914 | 6
CCCSc1ccc([C@H]2N[C@@](C)(C(=O)OC)[C@H]3C(=O)N(C)C(=O)[C@@H]23)cc1OC | . | -13 | -2 | . | . | 4619 | .
Cc1cccc(Nc2nc(N)c(C#N)c(CC#N)c2C#N)c1 | 3.2 | 1 | -15 | 5 | 8 | 9621 | -2
Additional structures
SMILES | RN4220 kill | BJeLR lethal | PrP UTR inh | Mtb hypoxia rep | Mtb hypoxia rep growth | Bead autofluor | Sa ugtP lethal
CC(=O)N1CCN(c2nnc(-c3ccc(C)cc3)c3ccccc23)CC1 | 1.1 | 13 | 25 | 15 | 9 | 4196 | 0
O=S(=O)(Nc1nc2ccc(Cl)cc2s1)c1cccs1 | 20 | -4 | -18 | -1 | 4 | 3729 | -12
CC(=O)Nc1ccc2sc(NC(=O)CN3CCOCC3)nc2c1 | 1.8 | -10 | -7 | -2 | 3 | 3792 | 0
CCOc1cc(N2CCOCC2)c(OCC)cc1NC(=O)c1cc(S(=O)(=O)N2CCOCC2)ccc1F | 0.9 | . | -9 | -6 | 4 | 8436 | 2
COCC(C)N1CC(O)=C(c2nc(-c3ccc(Cl)cc3)cs2)C1=N (configuration not stated) | 2.0 | -4 | -20 | 17 | 8 | 4543 | 1
Cc1cc(C)c(C)c(S(=O)(=O)N2CCN(Cc3nc4ccccc4[nH]3)CC2)c1C | 6.6 | 1 | 2 | 14 | 4 | 22533* | -20
O=C(CSc1ccc2ccccc2c1)NCc1cccs1 | 0.4 | -5 | -19 | 13 | 5 | 2408 | 7
c1coc(-c2nnc(-c3ccc4c(c3)OCO4)o2)c1 | 9.5 | 0 | . | 9 | 1 | . | 0
O=C(C1CCCC1)N1CCCC(Nc2ccc(F)cc2)C1 (configuration not stated) | 3.5 | 3 | -19 | 16 | 3 | 5629 | -1
CCOC(=O)C1(CCOC)CCN(Cc2ccccc2-c2ccco2)CC1 | 6.1 | 5 | -62 | 1 | 0 | 5297 | 2
Cn1c(=O)n(C)c2cc([N+](=O)[O-])c(N3CCN(S(=O)(=O)c4ccc5ccccc5c4)CC3)cc21 | 4.2 | 15 | -3 | -1 | -2 | 6910 | 0
CCc1cc(Cn2nc(-c3ccccc3)cc2C(=O)O)on1 | 4.1 | -6 | -27 | 10 | 15 | 4198 | -4
O=C(Cc1ccccc1)NN=Cc1ccc(OC(=O)/C=C\c2ccco2)cc1 | 11 | . | . | -1 | 4 | . | -21
Cc1ccc2c(c1)C(c1ccccc1)N(C(=O)c1cc3ccccc3oc1=O)CC(=O)N2 (configuration not stated) | 1.6 | 2 | -15 | 3 | 6 | 4219 | -1
Cc1sc(NC(=O)CSc2nnc(CCNC(=O)c3cccs3)n2C)nc1-c1ccccc1 | -3.3 | . | -16 | 2 | 10 | 5953 | -11
O=C(NNC(=S)Nc1ccc(Br)cc1)c1ccccc1Br | 2.5 | 3 | -17 | 3 | 5 | 4956 | -2
CCn1cc(Br)c(C(=O)Nc2ccc(F)cc2F)n1 | -2.6 | -8 | -12 | 0 | 14 | . | -6
CN(C(=O)COC(=O)COc1ccc(Cl)cc1Cl)c1c(N)n(Cc2ccccc2)c(=O)[nH]c1=O | -0.5 | 9 | -21 | -6 | 4 | 5866 | 6
Cc1cc(C)cc(-n2nnn(C3CC(=NNC(N)=S)C4OCC3O4)c2=S)c1 (configuration not stated) | 0.5 | . | . | 14 | 1 | . | 7
O=C(CSc1nc2ccc(Nc3nc(N4CCCC4)nc(N4CCCC4)n3)cc2s1)NCc1ccco1 | 28 | 0 | -9 | 1 | 6 | 3554 | 13
O=C(CSc1nc2ccccc2o1)c1ccccc1 | 17 | -2 | -49 | . | . | 3570 | -11
O=C1c2ccccc2[C@@H]2C[C@@H](O)[C@H](Nc3ccccc3)CCN12 | 0.7 | . | -8 | 3 | 5 | 2991 | 10
Cc1nnc(-n2ncc(C#N)c2N)c2nn(-c3cccc(Cl)c3)c(C)c12 | 4.3 | 1 | -22 | 16 | 8 | 8163 | 2
COc1ccc(N(CC(=O)N2CCOCC2)S(C)(=O)=O)cc1Cl | 6.7 | -8 | -12 | 8 | 10 | 3423 | 12
Clc1ccc(-[n+]2c(-c3cccc(Br)c3)[nH]c3nc4ccccc4nc32)cc1 | . | -13 | -4 | . | . | 4253 | .
The list goes on.
SMILES | RN4220 kill | BJeLR lethal | PrP UTR inh | Mtb hypoxia rep | Mtb hypoxia rep growth | Bead autofluor | Sa ugtP lethal
O=c1c2ccccc2nc(/C=C/c2ccc([N+](=O)[O-])o2)n1-c1ccc(O)cc1 | 99* | 64* | -117 | 5 | 5 | 4637 | 100*
COc1ccc(CS(=O)(=O)CC(C)(O)c2ccccc2Cl)cc1 (configuration not stated) | . | 6 | 20 | . | . | 4510 | .
CN(CCOc1ccccc1)C(=O)C1CCC(=O)N(CCc2ccc(Cl)cc2)C1 (configuration not stated) | 0.4 | 2 | -21 | 3 | 10 | 6999 | 1
Cc1ccc(C2CC(=O)C=C(Nc3ccc(Cl)cc3)C2)cc1 (configuration not stated) | . | -3 | -14 | . | . | 2163 | .
Cc1ccnc(NS(=O)(=O)c2ccc(NC(=O)CCc3ccccc3)cc2)n1 | -0.5 | 0 | 3 | 10 | -3 | 3077 | 6
CC(=NNc1ccc([N+](=O)[O-])cc1)c1c[nH]c2ccccc12 | -6.1 | . | . | 9 | -10 | . | -25
CCc1cccc(NC(=S)Nc2cccc3ccccc23)c1 | -4.3 | 1 | -10 | -5 | 0 | 5454 | 12
O=C(CCN1C(=O)/C(=C/c2ccccc2)SC1=S)Nc1cccnc1 | 3.2 | -7 | -11 | 7 | 6 | 5446 | 0
CN(C)Cc1c(C(=O)NN=CCCc2ccccc2)nnn1-c1nonc1N | 2.4 | . | . | 12 | -4 | . | -4
O=S(=O)(Nc1ccccc1Cl)c1ccc(-c2ccccn2)s1 | 28 | 2 | -22 | 12 | 17 | 4034 | -15
OC(CN1CCCC1)Cn1ccc2ccccc21 (configuration not stated) | -0.3 | 8 | -1 | 12 | 15 | 3777 | -5
CCOC(=O)c1nnn(-c2nonc2N)c1CS(=O)(=O)c1ccccc1 | 11 | -1 | -11 | 3 | 3 | 2407 | 6
COc1ccc2nc(NC(=O)CSc3nnnn3C)sc2c1 | -2.5 | 8 | -28 | 0 | 4 | 3103 | 8
CCC(C)(C)NC(=O)C(c1ccc(OC)cc1)N(C(=O)CCC(=O)Nc1cc(C)on1)c1cc(OC)ccc1OC (configuration not stated) | 3.1 | 4 | 1 | 10 | 5 | 5251 | 2
CC(C)(C)C1CCC(C(=O)Nc2ccc(N3CCOCC3)cc2N2CCOCC2)CC1 (configuration not stated) | 14 | . | . | 5 | 2 | ? | -1
CCCN1C(=O)N(C)C(N(O)C(=O)NC)C1(C)C (configuration not stated) | 2.8 | -7 | -12 | . | . | 4317 | 1
Cc1cccc(NC(=O)CN2C(=O)N/C(=C\c3ccc(N4CCOCC4)cc3)C2=O)c1 | -0.7 | 17 | -32 | -7 | -10 | 8919 | -9

By substructure, those above with an aryl methoxy group
SMILES | RN4220 kill | BJeLR lethal | PrP UTR inh | Mtb hypoxia rep | Mtb hypoxia rep growth | Bead autofluor | Sa ugtP lethal
COc1ccc(OCC(O)CNC(=O)Nc2cc(C)cc(C)c2)cc1 (configuration not stated) | 2.9 | -5 | -18 | 3 | 10 | 4102 | 8
COc1ccc(OCCn2cc(/C=C(\C#N)C(=O)NCc3ccco3)c3ccccc32)cc1 | 3.5 | 2 | -13 | 4 | -2 | 1882 | 11
COc1ccc(C=NNC(=O)Cc2csc(Nc3cccc(C(F)(F)F)c3)n2)cc1C | -6.9 | . | . | 6 | 8 | . | -20
COC(=O)c1ccccc1NC(=O)C1CCN(S(=O)(=O)c2cc(OC)ccc2OC)CC1 | -2.5 | 1 | -13 | 10 | 6 | 16420* | 2
COC(=O)CN1C(=S)N(c2ccc(OC)cc2)C(=O)/C1=C/c1ccc(OC)cc1 | 1.8 | 7 | 17 | -3 | 1 | 1914 | 6
CCCSc1ccc([C@H]2N[C@@](C)(C(=O)OC)[C@H]3C(=O)N(C)C(=O)[C@@H]23)cc1OC | . | -13 | -2 | . | . | 4619 | .
COc1ccc(N(CC(=O)N2CCOCC2)S(C)(=O)=O)cc1Cl | 6.7 | -8 | -12 | 8 | 10 | 3423 | 12
COc1ccc(CS(=O)(=O)CC(C)(O)c2ccccc2Cl)cc1 (configuration not stated) | . | 6 | 20 | . | . | 4510 | .
COc1ccc2nc(NC(=O)CSc3nnnn3C)sc2c1 | -2.5 | 8 | -28 | 0 | 4 | 3103 | 8
CCC(C)(C)NC(=O)C(c1ccc(OC)cc1)N(C(=O)CCC(=O)Nc1cc(C)on1)c1cc(OC)ccc1OC (configuration not stated) | 3.1 | 4 | 1 | 10 | 5 | 5251 | 2

Not a hit list, and some 3.9% of all compounds hit somewhere here.
